Sfp PPTase inh: Sfp phosphopantetheinyl transferase inhibition. Q9F4F7. Potency, µM, without a hit: max response, negative = inhibition, usual class: inhibitors. AID 1490. Biochemical Sfp PPTase activity, qHTS. 310,000 compounds, 3.5% hits; active = well fitted inhibition curve with a large enough effect; inconclusive = small, poorly fitted or top-dose-only effect, or another doubt; inactive = no such curve, though single readings can be large or run the other way;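 also: the enzyme is Sfp with the accession as filed and its product quenches rhodamine fluorescence; potency is read from the fitted curve at half-maximal effect; 0% = enzyme reaction without inhibitor and -100% = no enzyme wells; top concentration of the series not given in the record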
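Fluorescence-quenching assay: 15 nM Sfp-PPTase preincubated 15 min at room temperature with compound, then 5 uM rhodamine-CoA and 12.5 uM BHQ-2-labelled YbbR peptide added. Fluorescence (ex 525/em 598 nm) read at start and after 30 min; difference gives rate.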
CtBP-E1A blk: blocks the CtBP interaction with E1A; activity change, % (test concentration not listed); AlphaScreen GST-E1A/His-CtBP binding, 1536-well; stronger effect = lower value; control for the full effect not named in the record; AID 651724; 340,000 compounds, 0.49% hits; in the data active means activity change below about -65%; inconclusive means about -30% to -65%; inactive means above about -30%; also: % is scaled to controls: 0 for no effect and ±100 for the full control effect
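GST-E1A and His-tagged CtBP (125 nM each as 5X stock) were preincubated with pin-transferred compound for 2 h at 37 °C in the dark, then glutathione donor and nickel acceptor beads were added for 1 h before AlphaScreen reading.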
TRPV1 potentiator: enhances activation of the human vanilloid receptor TRPV1 | Q8NER1 | TRPV1-expressing cells, Fluo-8 calcium influx, capsaicin EC20 potentiation; host cell line not named in the record; control for the full effect not named in the record | potentiation, % at 8.33 µM | 320,000 compounds, 0.02% hits | AID 540277; active means potentiation above 80%; inconclusive means 30% to 80%; inactive means below 30%; also: 0% is about no effect
Target sequence (Q8NER1 whole entry, looked up): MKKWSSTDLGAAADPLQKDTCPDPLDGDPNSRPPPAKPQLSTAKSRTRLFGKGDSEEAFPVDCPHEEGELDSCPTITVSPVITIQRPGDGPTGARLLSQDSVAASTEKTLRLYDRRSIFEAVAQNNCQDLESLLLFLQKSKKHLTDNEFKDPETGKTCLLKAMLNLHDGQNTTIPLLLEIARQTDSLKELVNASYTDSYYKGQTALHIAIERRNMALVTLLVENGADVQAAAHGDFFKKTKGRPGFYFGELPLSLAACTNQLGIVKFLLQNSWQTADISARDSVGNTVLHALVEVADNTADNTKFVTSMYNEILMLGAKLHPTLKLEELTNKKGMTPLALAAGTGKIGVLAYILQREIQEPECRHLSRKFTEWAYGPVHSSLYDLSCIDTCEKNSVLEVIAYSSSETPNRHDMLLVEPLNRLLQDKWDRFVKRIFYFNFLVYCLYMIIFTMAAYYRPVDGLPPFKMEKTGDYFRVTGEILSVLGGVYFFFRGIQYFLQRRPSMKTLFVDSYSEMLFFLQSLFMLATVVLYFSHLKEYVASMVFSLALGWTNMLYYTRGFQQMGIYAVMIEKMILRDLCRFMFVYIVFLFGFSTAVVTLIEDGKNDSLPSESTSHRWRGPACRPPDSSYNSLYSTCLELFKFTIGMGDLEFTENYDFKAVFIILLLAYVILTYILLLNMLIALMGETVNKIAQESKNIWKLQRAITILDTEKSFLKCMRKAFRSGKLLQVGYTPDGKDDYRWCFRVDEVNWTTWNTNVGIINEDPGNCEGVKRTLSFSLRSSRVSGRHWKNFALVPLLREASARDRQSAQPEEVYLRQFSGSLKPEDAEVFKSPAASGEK
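TRPV1-expressing cells were cultured overnight at 35.5C and loaded with Fluo-8 calcium dye for 40 to 90 min at room temperature. After a 10 s baseline, compound was added and calcium influx was read kinetically for 3 min (ex 480/em 520 nm).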
Menin MLL FP FL: displaces fluorescein MLL peptide from human menin. Fluorescence polarization, fluorescein-MLL peptide displacement from menin. FP activity change, % at 61.4 µM. 290,000 tested, under 10 active. AID 1766; inconclusive = falling polarisation curve, or a change in total fluorescence; inactive = total fluorescence flat and polarisation flat or rising; no compound was filed as active; the % refers to the polarisation; negative = inhibition;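 also: % of control where 0% means no effect; inhibitors lower the polarisation; unlabelled MLL peptide was the positive control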
gsp ag: activates gsp, the McCune-Albright syndrome mutation; 340,000 compounds, 0.13% hits; Potency, µM (series often up to 76.9 µM), inactives show top-dose activation (cAMP increase), actives largely listed as activators; gsp mutant cells, cAMP HTRF, 30 min; control for the full effect not named in the record; AID 624287; active = well fitted activation curve with a large enough effect; inconclusive = small, poorly fitted or top-dose-only effect, or another doubt; inactive = no such curve, though single readings can be large or run the other way; cell line not stated here;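 also: phosphodiesterase inhibitor Ro 20-1724 added with compounds to block cAMP breakdown; potency is read from the fitted curve at half-maximal effect; nearly all actives have a fitted effect of over 60% in size; about a fifth of the inactives were tested at one dose only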
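Cells in DMEM/10% FBS with G418 were pretreated with compounds in DMSO plus […] (300 uM stock) for 30 min at 37C. cAMP was measured by HTRF (cAMP-d2 plus anti-cAMP antibody-K) after 30 min at room temperature.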
gsp antagonist: gsp mutant antagonism | gsp-mutant cells, cAMP HTRF, 30 min; control for the full effect not named in the record | 340,000 compounds, 0.4% hits | Potency, µM (titrated, usually from 76.9 µM), for the others: at the top dose activity change, negative = inhibition, usual class: inhibitors; active = falling curve of any shape with a large fitted effect; inconclusive = falling curve, mostly with a smaller effect; inactive = flat or rising curve; cell line not stated here;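 also: intracellular cAMP measured with PDE inhibitor Ro 20-1724 present during compound exposure; potency is read from the fitted curve at half-maximal effect; % is scaled to controls: 0 for no effect and ±100 for the full control effect; nearly all actives have a fitted effect of over 65% in size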
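Measurement of cellular cAMP by homogeneous time-resolved fluorescence following a 30 min compound exposure at 37C. The PDE inhibitor […] was present throughout; the assay buffer was DPBS with 0.05% BSA and 0.005% Tween 20.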
ClpP mod: qHTS Assay for Activators of ClpP; ATP-dependent Clp protease proteolytic subunit (Bacillus subtilis (strain 168)), P80244; purified B. subtilis ClpP, FRET peptide cleavage, 20 min; Potency, µM (top dose mostly 57.5 µM), inactives show at the highest dose activity change, negative = active; 340,000 compounds, 1.9% hits; AID 651965, 2013; active = well fitted falling curve with a large enough effect; inconclusive = small, poorly fitted or top-dose-only effect; inactive = no such curve, though single readings can be large or run the other way; also: potency is read from the fitted curve at half-maximal effect; the source files actives as falling curves though it sought activators and does not explain the sign; nearly all actives have a fitted effect of over 65% in size; many hits overshoot -100%
Target sequence (P80244 whole entry, looked up): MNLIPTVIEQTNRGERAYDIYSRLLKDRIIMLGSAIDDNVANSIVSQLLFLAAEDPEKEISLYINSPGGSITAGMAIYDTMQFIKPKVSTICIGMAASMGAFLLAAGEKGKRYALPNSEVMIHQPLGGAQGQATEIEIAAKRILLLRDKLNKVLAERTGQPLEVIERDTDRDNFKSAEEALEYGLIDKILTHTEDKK
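Purified B. subtilis ClpP, 10 microg/mL final in Tris/HCl pH8 with KCl, BSA, glycerol and Tween-20, cleaved an Abz/nitrotyrosine-quenched decapeptide. Fluorescence (ex 320, em 430) was read at 0 and 20 min at room temperature. Delta was normalized to 5.8 microM ADEP and DMSO/no-enzyme controls.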
Active calls of the source: *; ? = inconclusive; . = not tested or not shown; & = joins results of further samples; [ ] = remark or other dose.

SMILES | Sfp PPTase inh | CtBP-E1A blk | TRPV1 potentiator | Menin MLL FP FL | gsp ag | gsp antagonist | ClpP mod
c1ccc(-c2nc3c(ccc4ccccc43)[nH]2)nc1 | 15% | -14 | -15 | 5.9 | -34%[inhibitor] | 16% | 28µM*
CC1CC(Nc2ccccc2)=CC(=O)O1 (stereo not given) | -10% | 4 | -4 | -2.0 | 4% | 7% | -0.4%
Cc1oc(-c2cccs2)nc1CN1CC[C@@](O)(c2ccccc2)[C@H]2CCCC[C@@H]21 | 13% | -2 | 8 | 3.6 | 22% | 7% | .
CC(=O)Nc1ccc(OC(=O)Cc2ccc(Cl)cc2)cc1 | 1% | -6 | 1 | -2.7 | -12% | 13% | .
COc1ccc(Cl)cc1C(=O)C1CCCN(Cc2cnc(N3CCOCC3)s2)C1 (stereo not given) | -12% | -14 | -16 | 3.0 | -2%[15.4 µM] | -6% | .
COc1ccc(CN2C(=O)c3cccnc3C2=O)cc1S(=O)(=O)N1CCOc2ccccc21 | 3% | . | 1 | . | ? | -5% | 2.6%
CCN(CC(=O)NCc1ccccn1)S(=O)(=O)c1ccc(OC)cc1 | 4% | 5 | 4 | -1.9 | ? | 4% | .
CCN(CC)C(=O)CC(c1ccc(OC)cc1)c1c(OC)cc(OC)c2ccc(=O)oc12 (stereo not given) | -9%&-1% | -12 | 9 | 7.9&3.2 | ? | -6% | -16%
O=S(=O)(N/N=C/c1cccc(OC2CSC2)c1)c1ccccc1 | 11% | 4 | 20 | 6.6 | ? | -12% | -1.5%
O=C(CSc1nc2ccccc2c(=O)n1CCCO)Nc1ccc2c(c1)OCCO2 | . | 1 | -4 | . | -8%[15.4 µM] | 3% | -0.6%
COc1cc2c(cc1OC)C(C)N(S(=O)(=O)c1cn(C)cn1)CC2 (stereo not given) | 10% | 9 | 4 | -2.0 | -11% | 10% | .
Cc1ccc(NC(=O)N/C=C/c2ccco2)cc1C | -21% | 1 | -1 | ? | -4% | -5% | -0.6%
CCCCNCc1ccc(SC)cc1 | 10% | -14 | 13 | 2.2 | -8% | 5% | -3.3%
O=C(Nc1nc2ccc([N+](=O)[O-])cc2s1)c1ccncc1 | 15% | 10 | -8 | 2.8 | -12% | -1% | .
COc1cc(CC(=O)OCC(=O)N2CCCCC2C)cc(OC)c1OC (stereo not given) | 18% | -2 | 0 | 4.2 | -13%[15.4 µM] | 16% | .
N#Cc1c(N)n[nH]c1-c1cc2c([nH]1)CCCC2 | 1% | -10 | 6 | 2.7 | 0% | -2% | -23%
Cc1nc(C)c(NC(=O)OC(C)C)cc1NC(=O)OC(C)C | 25% | 0 | -1 | -2.9 | -10% | 4% | .
CC(=O)Nc1cccc(OCC(=O)NCCC2=CCCCC2)c1 | 11% | 2 | -11 | -3.2 | -19%[15.4 µM] | 9% | .
Cn1cc(Cl)cc(C(=O)Nc2ccccc2)c1=O | 13% | . | 27 | 4.2 | 3% | -1% | -24%
Cc1ccc(S(=O)(=O)N2c3ccccc3OCC2c2ccccc2)cc1 (stereo not given) | 4% | 0 | -7 | 7.7 | 11% | -11% | 0.7%
COC(=O)c1ccc(C(=O)OC)c(NC(=S)N2CCN(C)CC2)c1 | 13% | -11 | 2 | -2.7 | -36%[inhibitor] | 2% | .
CC(=O)Nc1ccc2c(c1)CCCC2 | 14% | 7 | 4 | 2.1 | 0% | 15% | 1.5%
CC(C)OC(=O)CSc1ncnc2c1cnn2-c1ccccc1 | -1% | -8 | 29 | -1.0 | 2% | 31%[activator] | 1.7%
CCN(CC)c1ccc(NC(=O)CN2CCN(c3ccc(F)cc3)CC2)cc1 | 12% | ? | -34 | -1.0 | 5% | 13% | -0.6%
CCOc1ccc(C(=O)OCC(=O)Nc2cccc(S(=O)(=O)N3CCCC3)c2)cc1 | . | -3 | 10 | . | 4% | 3% | -2.8%
Fc1ccc(C2=CC(c3ccco3)n3ncnc3N2)cc1 (stereo not given) | -24% | -7 | -15 | ? | -13% | 0% | -28%
CCN(CC)CCCNC(=O)c1cc(-c2ccc(Cl)c(Cl)c2)on1 | -4% | -3 | -1 | -0.3 | 9% | 4% | -1.0%
CCN(CCCNC(=O)CNC(=O)Cn1cnc2ccccc2c1=O)c1cccc(C)c1 | 14% | -5 | 4 | -0.4 | 17% | -12% | -3.6%
Cc1cc(Cl)cc(C)c1OCCCCN1CCOCC1 | 12% | 4 | -8 | 0.3 | ? | 6% | 0.4%
O=C(CSc1ncc(-c2ccc(F)cc2)n1Cc1ccco1)Nc1nccs1 | 7% | -2 | . | 5.3 | -3% | -10% | 1.4%

Gathered by group, the entries above containing a halogen (eight)
SMILES | Sfp PPTase inh | CtBP-E1A blk | TRPV1 potentiator | Menin MLL FP FL | gsp ag | gsp antagonist | ClpP mod
CC(=O)Nc1ccc(OC(=O)Cc2ccc(Cl)cc2)cc1 | 1% | -6 | 1 | -2.7 | -12% | 13% | .
COc1ccc(Cl)cc1C(=O)C1CCCN(Cc2cnc(N3CCOCC3)s2)C1 (stereo not given) | -12% | -14 | -16 | 3.0 | -2%[15.4 µM] | -6% | .
Cn1cc(Cl)cc(C(=O)Nc2ccccc2)c1=O | 13% | . | 27 | 4.2 | 3% | -1% | -24%
CCN(CC)c1ccc(NC(=O)CN2CCN(c3ccc(F)cc3)CC2)cc1 | 12% | ? | -34 | -1.0 | 5% | 13% | -0.6%
Fc1ccc(C2=CC(c3ccco3)n3ncnc3N2)cc1 (stereo not given) | -24% | -7 | -15 | ? | -13% | 0% | -28%
CCN(CC)CCCNC(=O)c1cc(-c2ccc(Cl)c(Cl)c2)on1 | -4% | -3 | -1 | -0.3 | 9% | 4% | -1.0%
Cc1cc(Cl)cc(C)c1OCCCCN1CCOCC1 | 12% | 4 | -8 | 0.3 | ? | 6% | 0.4%
O=C(CSc1ncc(-c2ccc(F)cc2)n1Cc1ccco1)Nc1nccs1 | 7% | -2 | . | 5.3 | -3% | -10% | 1.4%

Further results.
SMILES | Sfp PPTase inh | CtBP-E1A blk | TRPV1 potentiator | Menin MLL FP FL | gsp ag | gsp antagonist | ClpP mod
CCc1cc(-c2nnn(CCC3COCCO3)c2CC)ccc1-c1cn(CCc2c[nH]c3ccccc23)nn1 (stereo not given) | . | -7 | . | . | -8% | . | -2.1%
O=C(c1cc2cc([N+](=O)[O-])ccc2s1)N1CCCCC1 | 4% | 6 | -23 | 5.7 | -22% | -9% | 1.0%
COc1cc(NCCCCC(C)N)c2nccc(C)c2c1 (stereo not given) | . | -11 | . | . | -62%[inhibitor] | . | -1.2%
CN(C(=O)CSc1nnc(NC2CCCCC2)s1)C1CCS(=O)(=O)C1 (stereo not given) | -2% | 6 | -2 | 1.4 | -24% | 6% | 0.5%
CCC(=O)c1c[nH]c(C(=O)NCCCn2ccnc2)c1 | 20% | -7 | 8 | -0.5 | -31%[inhibitor] | 7% | 1.0%
CC1(C)CC2CC(C)(CN2C(=O)COC(=O)c2ccc(Cl)c(N)c2)C1 (stereo not given) | 17% | 2 | -39 | -2.7 | -1% | -21% | ?
Cc1cc(C)cc(N(C(C)C(=O)NC2CCCC2)S(C)(=O)=O)c1 (stereo not given) | 19% | 2 | 2 | -0.7 | -2% | -2% | -2.4%
O=[N+]([O-])c1ccc(SCCc2ccncc2)cc1 | 50µM* | 5 | 15&-6 | 1.6&-0.2 | -6% | -2%&-13% | 1.6%
O=[N+]([O-])c1ccc(/C=N/Nc2nc(N3CCCCC3)nc(N3CCCCC3)n2)o1 | -10% | 0 | -20 | 4.7 | -31%[inhibitor] | -12% | 1.7%
Cc1ccccc1NC(=O)C(=O)NNC(=O)COc1ccc2ccccc2c1 | 8% | -9 | 2 | -1.9 | ? | 5% | -1.2%
O=C(C1CCCN(S(=O)(=O)c2cccc3nsnc23)C1)N1CC=C(c2ccccc2)CC1 (stereo not given) | 17% | -17 | -17 | 4.4 | -14% | ? | -2.1%
O=c1c2ccccc2nc(/C=C/c2c[nH]c3ccccc23)n1-c1ccc([N+](=O)[O-])cc1 | 9% | -7 | -5 | 7.2 | -4% | -11% | -2.4%
COc1ccc(Br)cc1/C=N/NC(=O)c1ccco1 | 14% | . | 4 | -2.2 | 4%[15.4 µM] | -9% | .
COc1ccc(C)cc1NC(=O)CC(NC(C)=O)c1ccccc1 (stereo not given) | 15% | 8 | 12 | 0.6 | -7% | -8% | -0.4%
COc1ccc(C(CC(=O)c2ccc(C)cc2)C(C#N)C#N)cc1OC (stereo not given) | ? | 0 | -5 | 5.8 | 3%[15.4 µM] | ? | -0.1%
COC(=O)c1c(C)nn(-c2ccccc2)c1-n1cccc1 | -16% | 2 | 0 | 4.6 | -14% | 7% | -0.8%
CCOC(=O)c1cc(-c2ccccc2)sc1NC(=O)COC | ? | 4 | -11 | 11 | ? | -9% | 4.0%
O=C(COC(=O)[C@@H]1CCCN1S(=O)(=O)c1ccccc1F)Nc1ccc(OC(F)F)cc1 | 4% | 7 | 2 | -5.5 | -35% | 5% | .
C[C@@H]1CN([C@H](C)CO)C(=O)c2cc(NC(=O)NC3CCCCC3)ccc2O[C@H]1CN(C)S(C)(=O)=O | . | 1 | . | . | -78%[inhibitor] | 3% | -0.4%
Cc1nn(CC(=O)NCc2ccc(OC(C)C)cc2)c(=O)c2cc3occc3n12 | 7% | . | 6 | 4.4 | . | . | .
O=C(O)CCSc1nc2ccccc2n1-c1ccccc1 | 4% | 7 | -7 | 6.8 | -8% | -13% | .
COc1ccc(C(=O)C2CCCN(Cc3cnc(N4CCOCC4)s3)C2)c(OC)c1 (stereo not given) | 2% | 0 | -4 | -0.5 | -14%[15.4 µM] | -5% | .

Screening data deposited in PubChem BioAssay by National Center for Advancing Translational Sciences (NCATS).
